MLL AF4-AF9 inh: blocks AF4 peptide binding to human AF9 | actives 0.47% (n = 350,000) | inhibition, % at 10 µM | AID 651704 | AlphaScreen, biotin-AF4 peptide binding to FLAG-AF9 | P42568;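 active = every replicate reaching a set inhibition limit, whatever the replicate mean, cut at about 25% in these data; inconclusive = mean inhibition reaches that limit but some replicates miss it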;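 note: 0% = plate neutral control median and 100% = total signal loss; the record names both 10 and 1 µM as test concentration; the first replicate is given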
Vif TR-FRET: inhibitors of Vif binding to APOBEC3G peptide, primary screen, biochemical, TR-FRET, GST-Vif 1-94, biotin-A3G peptide, dose response retest (AID 1117319). TR-FRET GST-Vif / biotin-A3G peptide binding; higher % means a stronger effect; test concentration not given here; strong numbers were not always called active. inhibition, %, or IC50 in µM where a hit was titrated. actives 0.57% (n = 260,000);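 active = above the screen mean plus three standard deviations and confirmed in dose response; inconclusive = results disagree or hit not tested in dose response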;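 note: Vif residues 1-94 fused to GST binding biotinylated APOBEC3G peptide 110-148; 0% = full assay without inhibitor and 100% = GST in place of GST-Vif; retest series ran down from 100 µM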
Calb FLC: affects C. albicans growth with fluconazole; C. albicans CaCi-2 (fluconazole-resistant clinical isolate) + fluconazole, Alamar Blue growth, 48 h; growth inhibition, % (no concentration beside the values); actives 0.57% (n = 300,000); AID 1979;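 active = most replicates above 75%; inconclusive = exactly half above 75%; inactive = most below 75%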;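 note: all wells also contain fluconazole at 8 µg/ml as a sub-toxic cotreatment; 0% = median of DMSO wells and 100% = median of geldanamycin control wells; wells of about 8 µL received 7.5 nL stock; the first replicate is given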
RanGTP-Imp inh: inhibitors of RanGTP-importin-beta interaction, primary screen, biochemical, FRET, CFP-Ran, YFP-importin-beta, homogeneous; cell-free CFP-Ran/YFP-importin-beta FRET ratio; inhibition, % (concentration not given with the values); actives 1.1% (n = 300,000); AID 2216;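 active = most replicates above 15%; inconclusive = exactly half above 15%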;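 note: 0% = DMSO wells and 100% = Ran loaded with GDP instead of GTP; wells of about 40 µL received 100 nL stock; the first replicate is given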
Beta cell apopt: beta cell apoptosis inhibition; INS-1E cytokine-induced death, ATP luminescence, 48 h; percent of positive-control rescue, neutral wells zero; protection from apoptosis, % (concentration not given with the values); actives 0.8% (n = 300,000);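 active = all replicates at 75% or more, or half of them and the mean; inconclusive = half reach 75% but not the mean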;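 note: 0% = cytokine-treated negative control wells and 100% = positive control rescue; higher means more ATP so stronger rescue from cytokine killing; wells of about 40 µL received 100 nL stock; the first replicate is given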
LANA-H2A inh: blocks KSHV LANA binding to histone H2A/H2B. actives 0.6% (n = 320,000). AID 2629. cell-free LANA-H2A/H2B peptide, fluorescence polarization. inhibition, % (no concentration beside the values). Q9QR71; in the data active = inhibition mostly above about 10%, no sharp cut-off; inactive = mostly below about 6.7%;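 note: stock transfer was 7.5 nL into about 10 µL; 0% = median of vehicle wells and 100% = median of positive control wells; one replicate is shown; the record names a cut of 25% in any replicate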
Target sequence (Q9QR71 whole entry, looked up): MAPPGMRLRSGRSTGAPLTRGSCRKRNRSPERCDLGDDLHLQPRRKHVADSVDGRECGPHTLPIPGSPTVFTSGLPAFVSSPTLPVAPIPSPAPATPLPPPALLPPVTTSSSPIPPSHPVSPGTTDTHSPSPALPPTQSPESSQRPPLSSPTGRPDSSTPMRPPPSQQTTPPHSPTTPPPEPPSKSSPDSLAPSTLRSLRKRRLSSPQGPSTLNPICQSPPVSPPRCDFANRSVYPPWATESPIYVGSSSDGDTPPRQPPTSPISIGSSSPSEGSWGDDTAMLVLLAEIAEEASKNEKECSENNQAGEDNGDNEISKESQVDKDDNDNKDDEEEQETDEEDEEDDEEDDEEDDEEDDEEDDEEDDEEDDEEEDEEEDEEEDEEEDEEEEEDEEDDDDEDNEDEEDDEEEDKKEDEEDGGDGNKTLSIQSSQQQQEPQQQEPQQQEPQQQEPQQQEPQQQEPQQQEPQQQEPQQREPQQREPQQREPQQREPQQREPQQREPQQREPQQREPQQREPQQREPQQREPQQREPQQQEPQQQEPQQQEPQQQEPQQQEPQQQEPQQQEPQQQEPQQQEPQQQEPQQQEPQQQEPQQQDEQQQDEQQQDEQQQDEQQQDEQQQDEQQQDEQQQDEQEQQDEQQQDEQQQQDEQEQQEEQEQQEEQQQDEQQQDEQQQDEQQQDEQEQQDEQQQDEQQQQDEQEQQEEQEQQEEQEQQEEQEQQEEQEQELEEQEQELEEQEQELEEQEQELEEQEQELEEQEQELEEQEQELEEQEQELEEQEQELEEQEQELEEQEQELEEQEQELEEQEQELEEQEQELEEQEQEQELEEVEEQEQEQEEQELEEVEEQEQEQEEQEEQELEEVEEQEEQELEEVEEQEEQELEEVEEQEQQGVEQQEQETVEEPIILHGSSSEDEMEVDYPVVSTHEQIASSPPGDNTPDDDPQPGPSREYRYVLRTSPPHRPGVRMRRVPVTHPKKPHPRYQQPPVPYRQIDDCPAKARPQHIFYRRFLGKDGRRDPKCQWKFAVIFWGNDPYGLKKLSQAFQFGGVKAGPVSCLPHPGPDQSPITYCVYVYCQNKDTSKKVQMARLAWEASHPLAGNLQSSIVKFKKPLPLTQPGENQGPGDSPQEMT
A1 inh: inhibitors of the anti-apoptotic protein A1, read as caspase activation. MEF A1-2A-BIM cells, Caspase-Glo 3/7 luminescence, 3 h; percent of clofoctol response, vehicle zero. caspase activation, % (test concentration not listed). actives 0.066% (n = 330,000);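 active = over half of replicate activation scores above 10%, or exactly half above 10 with the replicate mean above 10; inconclusive = replicate mean below 10 yet half the replicates above 10; inactive = over half of replicates below 10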;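 note: wells of about 30 µL received 50 nL stock; many hits fall short of the cut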
T cruzi inh: blocks replication of Trypanosoma cruzi; actives 1.4% (n = 300,000); AID 1885; T. cruzi beta-gal in NIH3T3, luminescence, 90 h; inhibition, % (concentration not given with the values);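 active = mean inhibition across valid replicates above about 55%, limit read from the data; inconclusive = mean below that limit but half or more replicates reach it; inactive = mean below it, under half of replicates reach it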;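 note: signal also drops with host cell toxicity which is not excluded here; 0% = plate median of DMSO wells and 100% = zero luminescence signal; higher percent means less beta-gal luminescence so fewer parasites; stock transfer was 50 nL into about 50 µL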
Active calls of the source: *; ? = inconclusive; nt = no result given; + = active, no number.

SMILES	MLL AF4-AF9 inh	Vif TR-FRET	Calb FLC	RanGTP-Imp inh	Beta cell apopt	LANA-H2A inh	A1 inh	T cruzi inh
O=S(=O)(c1ccc(F)cc1)N1CCC(O)(c2ccc3c(c2)OCO3)CC1	nt	5%	-14	3.2	1	-4.0	1.0	10
O=C(NC1CCCC1)C(c1ccc(Cl)cc1)N1CCN(C2CCCCC2)CC1 (stereo not drawn)	2.9	8%	-5	1.7	4	-4.8	1.4	3
COCc1cc(=O)[nH]c2cc(NC(=O)C(C)(C)CCl)c(C)cc12	nt	16%	-7	5.9	1	2.2	0.8	-5
Cc1ccc(-n2c(C)cc(/C=c3/sc4nc5ccccc5n4c3=O)c2C)cc1	nt	?	11	8.1	1	-3.5	0.0	37
O=C(COc1cccnc1[N+](=O)[O-])NCCc1ccccc1	0.9	7%	25	-3.4	nt	1.7	-0.8	9
COc1ccc2c(CC(=O)OCC(=O)NC(=O)c3cccn3C)coc2c1	nt	3%	8	-2.5	-6	-0.6	0.2	1
Fc1ccccc1NC(=S)N1CCCCC1	3.3	-5%	-19	12	-3	-2.5	0.3	-12
CCOc1cc(/C=N/N=C2/NC(=O)C(CC(=O)O)S2)ccc1OCc1ccc(Cl)cc1Cl (stereo not drawn)	nt	32%	-8	0.9	-1	-2.0	-0.4	3
CC(OC(=O)Cc1ccc(Br)cc1)C(=O)NC1CCCC1 (stereo not drawn)	3.1	1%	nt	nt	-5	3.3	-1.7	nt
CC(=O)NC1(c2ccc(F)cc2)CCN(C(=O)c2c(F)cccc2F)CC1	-1.0	-1%	1	-3.1	-16	-2.9	0.5	-3
CC(=O)/C(C#N)=C1\NC(=O)C(Cc2ccc(F)cc2)S1 (stereo not drawn)	-3.7	-4%	-7	-0.2	1	4.7	0.0	-40
COc1ccc(-c2cc(C(=O)NCC3CCCO3)c3ccccc3n2)cc1 (stereo not drawn)	-2.1	-7%	12	-3.3	-1	0.4	0.5	9
CCc1sc(C(=O)Nc2cccc(-n3cnnn3)c2)cc1C	-4.6	-1%	nt	nt	6	2.9	-0.7	nt
Cc1ccc(/C=N\NC(=O)CCc2n[nH]c(=O)[nH]c2=O)o1	0.8	2%	26	12	0	4.1	-0.8	-5
Cc1cc(C(=O)COC(=O)CN(C)S(=O)(=O)c2ccc(Cl)cc2)c(C)n1CC1CCCO1 (stereo not drawn)	nt	?	0	4.3	-5	0.3	0.9	10
Cc1ccc(NC(=O)Cn2ncc(Cl)c(Cl)c2=O)cc1S(=O)(=O)N1CCCCC1	-1.1	-17%	nt	nt	-1	0.9	?	nt
Cn1cc(C(=O)Nc2ccccn2)c(=O)c2ccccc21	-4.0	-14%	-3	-3.6	nt	nt	nt	-1
CCC(CC)NC(=O)COC(=O)c1cc(SC)ccc1Cl	-1.1	-10%	-29	5.4	-5	3.9	1.9	-3
Cc1cc(=O)oc2c(C)c(OCC(=O)N(C)C)ccc12	nt	23%	-4	0.0	1	6.1	1.3	-7
CCCCOc1ccc(S(=O)(=O)NC(=O)NCc2ccc(OCCC)cc2)cc1	-5.2	-2%	36	-4.0	nt	1.1	0.4	-9
CCOC(=O)C(NC(=O)c1cccc(Cl)c1)(Nc1nnc(C)s1)C(F)(F)F (stereo not drawn)	nt	-8%	-8	4.4	-1	2.3	-0.3	-4
CCOc1cc(Cl)c(S(=O)(=O)NCCCn2ccnc2)cc1Cl	1.0	nt	9	2.3	30	3.6	-0.3	-19
O=C(Nc1nnc(CSCc2ccc(Cl)cc2)s1)c1cccc([N+](=O)[O-])c1	nt	nt	1	0.1	4	-0.5	0.0	-1
CCCCOC(=O)C(NC(=O)c1ccccc1)=C(C)C	nt	-1%	19	1.8	-2	-0.5	0.4	-3
CCN1CCc2c(sc3c2c(NCc2ccco2)nc2nnnn23)C1	nt	11%	-25	12	-5	-3.7	0.8	19
CCC1(c2ccc(F)cc2)NC(=O)N(CC(=O)NCC(=O)Nc2cccc(C)c2C)C1=O (stereo not drawn)	3.2	-9%	-9	3.1	1	-4.7	-0.1	2
Cc1ccc2nc(-c3ccc(S(=O)(=O)N4CCOCC4)cc3)cn2c1	nt	-7%	-3	0.3	nt	nt	nt	-2
COc1ccc(NC(C)=O)cc1S(=O)(=O)NC1CCSc2ccccc21 (stereo not drawn)	0.9	nt	16	-3.5	-1	-2.6	0.0	-6
O=C(Nc1ccncc1NC(=O)c1cccc([N+](=O)[O-])c1)c1cccc([N+](=O)[O-])c1	-0.3	-7%	?	2.4	2	-4.7	0.5	-8
Cc1ccc(C(=O)NCCCN2CCOCC2)cc1N1CCCC1=O	nt	1%	6	8.4	-2	-1.6	0.8	1
CCNC(=O)CSc1ncnc2sccc12	nt	3%	7	-2.7	-3	1.0	0.1	6
O=C(N/N=C/c1ccncc1)c1cc(-c2ccc(Br)s2)[nH]n1	1.6	nt	0	7.1	6	-12	0.5	-6
COC(=O)c1c(C)oc2ccc(N(C(=O)c3ccncc3)S(=O)(=O)c3ccc(C)cc3C)cc12	nt	-10%	1	0.6	100*	-1.0	-0.7	-50
CCOC(=O)/C(C#N)=C/Nc1cc(C(C)(C)C)sc1C(C)=O	-0.2	1%	-6	-1.6	-2	-1.7	0.5	6
O=[N+]([O-])c1ccc(Oc2cccc3cccnc23)c(Cl)c1	7.7	2%	-1	-0.3	-8	0.4	-0.1	11
C=CCc1cc(C)ccc1OCCOCCC(C(=O)OCC)C(=O)OCC	1.8	-4%	4	1.1	3	-2.1	-0.3	-15
CCC(O)C1CCN(C(=O)c2cc(COc3ccc4ncccc4c3)on2)CC1 (stereo not drawn)	-2.9	2%	-6	-2.9	106*	3.0	0.1	-21
Cc1noc(C)c1CN1C(=O)c2ccccc2C1=O	-0.4	nt	-21	5.0	-1	0.2	0.7	-21
C=CCn1c(COc2ccc(F)cc2)nnc1SCC(=O)N1CC(=O)Nc2ccccc21	nt	4%	18	?	3	-1.5	-0.7	7
O=c1[nH]c2ccc(NS(=O)(=O)c3ccc4ccccc4c3)cc2[nH]1	-3.3	12%	10	0.2	2	5.2	-0.4	-4
CCCCn1c(N)c(N(CCOC)C(=O)c2ccc(N(C)S(=O)(=O)c3ccc(C)cc3)cc2)c(=O)[nH]c1=O	1.5	-4%	-9	1.7	-5	1.1	-2.1	-6
COC(=O)[C@H](Cc1ccccc1)NC(=O)N1CCC(C)CC1	nt	6%	-5	3.2	-5	6.5	-0.1	-28
COCC(=O)NC1CC2CCC(C1)N2C(=S)Nc1ccccc1C(=O)OC (stereo not drawn)	-0.7	-3%	2	1.5	-6	12	-0.7	0
O=C1COc2ccc(C(=O)NCc3ccco3)cc2N1	5.2	64%	7	0.0	0	15	0.7	-4
N=c1sccn1CC(=O)Nc1ccc(S(N)(=O)=O)cc1	-3.1	2%	-3	3.9	-6	-1.0	0.0	-10
O=C1/C(=C\c2ccco2)SC(=S)N1C1CCCCC1	nt	nt	5	-1.8	nt	-8.6	0.5	-2
COC(=O)CSc1cc([N+](=O)[O-])ccc1NC(=O)OC	-3.0	4%	39	0.2	-5	0.0	-0.1	9
CN(C)c1nc(-c2ccccn2)nnc1-c1ccccc1	nt	?	-2	0.9	5	3.3	-0.4	50
COc1cc(Br)ccc1C1CC(=O)C(C)C(c2ccc(Br)cc2OC)N1 (stereo not drawn)	-6.1	-8%	nt	-2.8	-2	-7.5	0.7	1
O=c1c2ccccc2nc(SCc2ccc(F)cc2Cl)n1CCCN1CCOCC1	-1.4	4%	15	-1.3	-7	1.5	-0.5	31
CSc1ccccc1OC1CCN(Cc2ccccc2)CC1	nt	-9%	-20	-8.9	-6	-1.0	-0.9	7
O=c1c2ccc([N+](=O)[O-])cc2ncn1CCOc1cccc(Br)c1	2.0	4%	-9	?	0	5.0	1.0	67*
CC(C)(C)c1cc(C(=O)NNC(=O)Nc2cccc(Cl)c2)n(Cc2ccccc2)n1	0.2	6%	-2	10	nt	-4.5	-1.9	nt
COc1cc(C2(O)CCCCC2C)cc(OC)c1OC (stereo not drawn)	nt	-1%	-4	2.4	nt	-5.2	-0.1	-5
O=C(COC(=O)c1cc(Cl)ccc1Cl)Nc1ccc2[nH]c(=O)[nH]c2c1	0.8	6%	-1	4.6	0	-4.1	-0.3	-11
COc1ccc(C(=O)NCC(c2cccs2)N2CCOCC2)cc1OC (stereo not drawn)	-0.4	-6%	nt	nt	-6	0.2	0.2	nt
COCCn1c(SCC(=O)Nc2ccc3c(c2)CCC3)nc2ccccc2c1=O	1.1	-7%	-16	2.0	0	1.6	-0.1	16
COc1ccc(CN2CCNC(=O)C2CC(=O)N(C)CCC2CCOCC2)cc1OC (stereo not drawn)	-6.9	nt	8	?	nt	-3.5	1.1	-19
COc1ccccc1C1=NOC(Cn2c(NCC3CCCO3)nc3c2c(=O)n(C)c(=O)n3C)C1 (stereo not drawn)	3.5	-3%	4	-1.4	-1	-1.2	-1.8	-1
Cc1cc(NC(=O)CCC(=O)N(C2CC2)C(C(=O)NC(C)(C)C)c2ccccc2Cl)no1 (stereo not drawn)	1.8	nt	-8	1.6	3	4.0	-0.5	9
The results go on:
SMILES	MLL AF4-AF9 inh	Vif TR-FRET	Calb FLC	RanGTP-Imp inh	Beta cell apopt	LANA-H2A inh	A1 inh	T cruzi inh
Cc1cccc(C(=O)OCC(=O)NC(C)CCc2ccccc2)c1 (stereo not drawn)	0.1	-8%	2	1.7	-2	3.1	-0.3	4
Cc1ccc(NC2CCCN(C(=O)c3ccoc3)C2)cc1C (stereo not drawn)	3.5	1%	2	4.3	nt	nt	nt	-8
CC(CC(=O)Nc1cccc(F)c1)S(=O)(=O)c1ccc2c(c1)NC(=O)CO2 (stereo not drawn)	-0.5	2%	-9	1.1	nt	4.7	-1.3	-13
NC(=O)c1nn(CC(=O)Nc2cccc(S(=O)(=O)N3CCCCCC3)c2)c(=O)c2ccccc12	3.6	3%	nt	nt	4	+	0.1	nt
COc1cccc(NC(=O)C(Sc2nnnn2C)c2ccccc2)c1 (stereo not drawn)	-5.8	6%	-5	0.7	nt	-3.5	-0.5	2
CCCCOC(=O)n1c(SCC(=O)N(C)C)nc2ccccc21	nt	2%	29	3.1	-14	3.7	1.0	9
CSc1sc(C(=O)NCC2CC2)c2c1S(=O)(=O)N(C)c1ccccc1-2	0.9	-251%	8	-0.7	-2	2.1	0.5	5
O=C(NC1CCCN(Cc2ccc(Cl)cc2)C1)c1ccccc1C(F)(F)F (stereo not drawn)	4.1	nt	4	1.1	2	-5.2	0.5	16
CC(=O)c1ccc(NC(=O)CCS(=O)(=O)c2ccc3c(c2)n(C)c(=O)c(=O)n3C)cc1	nt	-7%	1	3.2	-10	7.4	-0.3	-17
Cc1cccc2sc(N(CCCN(C)C)C(=O)c3nc4ccccc4s3)nc12	nt	nt	-23	-2.3	2	3.4	0.3	44
Cc1ccc2cc(CN(CC3CCCO3)C(=O)Nc3ccccc3F)c3nnnn3c2c1 (stereo not drawn)	-24	0%	7	4.7	-1	-1.7	-1.3	-5

Rows were taken by chance, and some 4.3% of all compounds hit somewhere here.
